# CRE-bla Fsk: alters forskolin-stimulated CRE reporter signaling in CHO cells. AID 662. actives 2.5% (n = 71,000). Potency, µM (highest dose often 38.2 µM), for the others: at the highest dose activity change, negative = inhibition, usual class: activators. CHO CRE-bla reporter (cAMP response element driving beta-lactamase), forskolin EC10, beta-lactamase ratio; active means well fitted activation curve with a large enough effect in the signal ratio, with a control signal flat, not every such curve was filed as active; inconclusive means small, poorly fitted or top-dose-only effect, or effect the other way, or a change in a side signal; the % refers to the signal ratio; further: potency means the concentration at half of the fitted maximal effect; % of control where 0% means no effect
#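 CRE-bla CHO reporter cells treated with compound titration plus EC10 NKH 477 (water-soluble forskolin), incubated 3 h at 37 °C; CCF4 loading 2 h at room temperature, 460/530 nm emission ratio read, AC50 values derived for positive or negative modulators.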
# DNA Pol III inh: DNA polymerase III holoenzyme inhibition. Potency, µM (highest dose often 57.1 µM), inactives show at the highest dose activity change, negative = inhibition. reconstituted DNA polymerase III holoenzyme replication, biochemical. AID 603. actives 0.25% (n = 71,000); further: potency means the concentration at half of the fitted maximal effect; on the % scale 0 is the no-effect control and ±100 the full control effect
#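 Reconstituted *E. coli* holoenzyme (0.35 nM Pol III, 1 nM beta, 154 nM SSB, 2 nM primase) was preincubated with compound for 15 min at RT. Synthesis on 1.4 nM ssM13Gori ran 35 min, then was stopped with PicoGreen/EDTA and read as dsDNA fluorescence.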
# ERK AVP block: inhibitors of vasopressin-stimulated ERK signaling pathway; actives 0.99% (n = 72,000); HEK293-V1b, vasopressin-stimulated pERK AlphaScreen; Potency, µM (series often up to 57.5 µM), inactives show at the top dose activity, negative = inhibition, usual class: inhibitors; further: potency means the concentration at half of the fitted maximal effect; on the % scale 0 is the no-effect control and ±100 the full control effect; nearly all actives have a fitted effect of over 55% in size
#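 qHTS, compounds titrated on V1b-expressing HEK293 cells. Preincubation 30 min at 37C, vasopressin 25 nM for 5 min, lysis 10 min, bead incubation 5 hr at room temperature.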
# Epigenetic mod: derepresses silenced GFP locus in mouse C127i cells; Potency, µM (titrated, usually from 46.1 µM), for inactives: at the top dose GFP derepression (activation); actives 0.09% (n = 68,000); mouse C127i GFP locus derepression, cytometry, 30 h; AID 597; further: % of control where 0% means no effect
#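 Derepression screen: silenced CMV-GFP reporter in murine C127i cells, 30 h compound incubation at 37 C, washed cells imaged by laser-scanning cytometer to enumerate GFP-expressing objects of 20 to 120 um.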
# Hsp90 Hop PPI: changes Hsp90-Hop TPR2A binding signal, up or down. actives 0.44% (n = 71,000). AID 595. AlphaScreen TPR2A-His6 binding biotin-Hsp90 C-terminal peptide. Potency, µM (top dose mostly 57 µM), for the others: at the highest dose activity change, negative = inhibition; active means well fitted curve in either direction with a large enough effect; inconclusive means small, poorly fitted or top-dose-only effect, or another doubt; further: potency means the concentration at half of the fitted maximal effect; on the % scale 0 is the no-effect control and ±100 the full control effect; many of its hits are not listed in these tables
# 15-hLO inh: inhibitors of human 15-lipoxygenase (ALOX15); purified 15hLO-1, xylenol orange hydroperoxide absorbance; Potency, µM (highest dose often 57.1 µM), without a hit: at the highest dose activity change, negative = inhibition, most hits filed as inhibitors; actives 1.4% (n = 74,000); further: potency means the concentration at half of the fitted maximal effect; on the % scale 0 is the no-effect control and ±100 the full control effect; nearly all actives have a fitted effect of over 55% in size
# Target sequence (P16050 whole entry, looked up): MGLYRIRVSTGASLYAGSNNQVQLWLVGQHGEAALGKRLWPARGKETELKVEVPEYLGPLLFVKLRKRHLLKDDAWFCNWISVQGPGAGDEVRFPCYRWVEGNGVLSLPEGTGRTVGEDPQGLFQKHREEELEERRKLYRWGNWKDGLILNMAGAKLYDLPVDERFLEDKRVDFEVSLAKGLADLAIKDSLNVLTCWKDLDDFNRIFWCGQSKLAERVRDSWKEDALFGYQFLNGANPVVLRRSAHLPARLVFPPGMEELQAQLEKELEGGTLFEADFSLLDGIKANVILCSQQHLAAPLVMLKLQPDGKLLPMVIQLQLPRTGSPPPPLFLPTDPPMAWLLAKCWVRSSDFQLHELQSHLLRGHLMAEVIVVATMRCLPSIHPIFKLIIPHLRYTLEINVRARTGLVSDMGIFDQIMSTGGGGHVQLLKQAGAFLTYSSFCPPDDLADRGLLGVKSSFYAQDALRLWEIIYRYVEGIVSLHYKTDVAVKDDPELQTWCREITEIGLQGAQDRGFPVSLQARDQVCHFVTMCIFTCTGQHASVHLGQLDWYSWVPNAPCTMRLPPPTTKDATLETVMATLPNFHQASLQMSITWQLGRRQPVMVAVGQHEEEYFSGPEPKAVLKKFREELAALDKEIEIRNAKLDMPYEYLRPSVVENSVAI
#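 Inhibition is scored from a chromogenic endpoint. After 15 min enzyme-compound contact, arachidonic acid (50 uM final) reacts 6 min with 40 nM 15hLO-1 at room temperature, then Fe-XO reagent is added for 30 min and absorbance ratio recorded.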
# UbGFP stabilizer: inhibits proteasome, raising ubiquitin-GFP reporter fluorescence. Ubiquitin-GFP reporter cells, proteasome inhibition, GFP fluorescence; response scale: untreated = 0%, 10 µM MG-132 = 100%. Potency, µM (titrated, usually from 45.9 µM), for inactives: top-dose activation (GFP accumulation), actives largely listed as activators. 67,000 tested, under 10 active; active means well fitted activation curve with a large enough effect, not every such curve was filed as active; inconclusive means small, poorly fitted or top-dose-only effect, or another doubt; inactive means no such curve, though single readings can be large or run the other way; further: potency means the concentration at half of the fitted maximal effect
#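 Reporter cells (U2OS, ubiquitin-G76V-GFP fusion) are plated overnight, then treated 4 hr at 37 °C with compound titrations from 46 uM down to 2.9 nM. Activity is scaled against untreated cells and 10 uM MG-132.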
# HBB splicing: modulators of hemoglobin beta chain splicing. Potency, µM (top dose mostly 46.1 µM), for inactives: at the top dose activation, hits mostly activators. actives 0.06% (n = 65,000). HBB splicing reporter cell assay, activation; EGFP reporter with mutant IVS2-654 intron; response scale: normalised to 500 nM splice-correcting PNA; further: potency means the concentration at half of the fitted maximal effect; 0% is about no effect
#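 Compounds were applied for 2 days to HeLa EGFP-654 cells, 500/well in Optimem with 2% FCS. The reporter's EGFP is disrupted by mis-splicing of beta-globin intron IVS2-654. Readout: summed well GFP fluorescence from 488 nm laser scanning; reference was 500 nM antisense […] 654 PNA.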
# * hit, by the source's call; ? = inconclusive; / = no result given; & = joins results of further samples; [ ] = another dose, or the depositor's remark. Unless noted, the call rests on the fitted dose curve; in most records, active means well fitted curve in the direction sought with a large enough effect; inconclusive means small, poorly fitted or top-dose-only effect, or another doubt; inactive means no such curve, though single readings can be large; an effect the other way counts as inactive or inconclusive. An excerpt; the hit share may differ from the screen's.
# Short keys – A = CRE-bla Fsk; B = DNA Pol III inh; C = ERK AVP block; D = Epigenetic mod; E = Hsp90 Hop PPI; F = 15-hLO inh; G = UbGFP stabilizer; H = HBB splicing
1: C[C@H]1C[C@@H]2[C@@H]([C@@H](O)C[C@@]3(C)[C@H]2CC[C@]3(O)C(=O)CO)[C@@]2(C)C=CC(=O)C=C12
  A = 1.1%[17.1 µM]	B = -6.2%[25.6 µM]	C = 5.5%[25.7 µM]	D = 2.7%[20.6 µM]	E = -2.7%[26 µM]	F = -0.8%[25.6 µM]	G = -9.8%[20.5 µM]	H = -0.2%[20.6 µM]
2: COC(=O)C1C(O)CC[C@@H]2CN3CCc4c([nH]c5ccccc45)C3C[C@@H]12 (stereo not given in full)
  A = /	B = /	C = 16.7%&14.5%	D = /	E = /	F = 7.3%&6.2%	G = /	H = /
3: Cc1nnc(SCC2=C(C(=O)O)N3C(=O)[C@@H](NC(=O)Cn4cnnn4)[C@H]3SC2)s1
  A = /	B = /	C = /	D = -1.6%[20.6 µM]	E = /	F = /	G = /	H = /
4: NC(=O)N1c2ccccc2CC(=O)c2ccccc21
  A = -4.5%	B = 0.2%	C = 9.6%	D = 4.3%	E = -1.7%	F = -13.7%	G = -5.1%	H = 2.3%[57.5 µM]
5: OC(CCN1CCCC1)(c1ccccc1)C1CCCCC1 (stereo not given)
  A = /	B = /	C = -12.0%	D = -6.0%[20.6 µM]	E = /	F = 3.6%	G = /	H = /
6: CN1[C@@H]2CC[C@H]1CC(OC(=O)[C@@H](CO)c1ccccc1)C2 (stereo not given in full)
  A = ?	B = -2.4%	C = -2.6%[25.7 µM]	D = 4.7%[9.22 µM]	E = -0.9%	F = 8.6%[25.6 µM]	G = -2.4%	H = 3.5%[20.6 µM]
7: COc1ccc(NS(=O)(=O)c2ccc(N)cc2)nn1
  A = -0.7%[17.1 µM]	B = 2.9%[25.6 µM]	C = 10.0%	D = 2.3%&-1.7%[20.6 µM]	E = 2.7%[26 µM]	F = 2.5%	G = -2.7%[20.5 µM]	H = 0.9%[20.6 µM]
8: CC/C(=C(\c1ccccc1)c1ccc(OCCN(C)C)cc1)c1ccccc1
  A = ?	B = 9.6%	C = ?	D = -1.4%	E = -14.3%	F = 6.1%	G = -1.3%	H = -1.0%
9: Cc1occc1-c1nc(-c2ccccn2)no1
  A = 9.0%	B = -12.3%	C = -14.2%	D = 3.6%	E = -14.3%	F = 0.3%	G = 17.4%	H = -1.2%
10: COc1cc(Cc2cnc(N)nc2N)cc(OC)c1OC
  A = ?	B = -8.8%	C = 4.9%	D = 0.0%	E = -3.3%	F = -3.3%	G = -7.1%	H = 1.4%[1.84 µM]

# From compound 3 up to 5, copied from above:
# Short keys – A = CRE-bla Fsk; B = DNA Pol III inh; C = ERK AVP block; D = Epigenetic mod; E = Hsp90 Hop PPI; F = 15-hLO inh; G = UbGFP stabilizer; H = HBB splicing
3: Cc1nnc(SCC2=C(C(=O)O)N3C(=O)[C@@H](NC(=O)Cn4cnnn4)[C@H]3SC2)s1
  A = /	B = /	C = /	D = -1.6%[20.6 µM]	E = /	F = /	G = /	H = /
4: NC(=O)N1c2ccccc2CC(=O)c2ccccc21
  A = -4.5%	B = 0.2%	C = 9.6%	D = 4.3%	E = -1.7%	F = -13.7%	G = -5.1%	H = 2.3%[57.5 µM]
5: OC(CCN1CCCC1)(c1ccccc1)C1CCCCC1 (stereo not given)
  A = /	B = /	C = -12.0%	D = -6.0%[20.6 µM]	E = /	F = 3.6%	G = /	H = /

# Source: PubChem BioAssay
